Screening results: PubChem, ICCB-Longwood Screening Facility, Harvard Medical School
GIV Gai3 FP: GIV-Galpha-i interaction inhibition | P08753 | Galpha-i3/FITC-GIV peptide fluorescence polarization, 90 min; stronger effect = lower value; scaled: aluminum fluoride 0%, vehicle 100% | percent of control (FP), % (concentration not given with the values) | actives 0.42% (n = 210,000) | AID 1224905;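 active means replicate mean at 85% of control or lower, very high polarization wells dropped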;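 further: wells of about 15 µL received 100 nL stock; the first replicate is given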
Target sequence (P08753 whole entry, looked up): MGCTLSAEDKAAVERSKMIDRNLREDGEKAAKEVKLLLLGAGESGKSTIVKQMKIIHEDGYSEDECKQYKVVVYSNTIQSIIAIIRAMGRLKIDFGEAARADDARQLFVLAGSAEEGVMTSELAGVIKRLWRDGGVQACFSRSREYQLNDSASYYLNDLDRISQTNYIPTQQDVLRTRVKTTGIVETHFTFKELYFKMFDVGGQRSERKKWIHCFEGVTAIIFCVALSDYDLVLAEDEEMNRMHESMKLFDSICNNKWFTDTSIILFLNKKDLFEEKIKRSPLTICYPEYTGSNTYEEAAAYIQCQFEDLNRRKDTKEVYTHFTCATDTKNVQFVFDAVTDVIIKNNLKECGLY
HCMV UL50-53 inh: inhibitors of HCMV UL50-UL53 nuclear egress complex interaction. inhibition, % (test concentration not listed). AID 1918969. HTRF UL50-UL53 interaction, normalized percent inhibition. actives 0.15% (n = 190,000);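 active means both replicates at 50% or more, plus weaker picks with an unusually low signal ratio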;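 further: stock transfer was 100 nL into about 20 µL; 0% = negative control wells and 100% = wells with untagged competitor protein; inactives centre near -12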
Sa growth 42C: inhibitors of Staphylococcus aureus growth at 42 °C. relative growth, % (concentration not given with the values). AID 720641. S. aureus RN4220 growth, OD600, 20 h; stronger effect = lower value. actives 0.53% (n = 170,000);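 active means growth at 42 °C up to 50% and 20 or more points under that at 30 °C, or under 10% at both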;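 further: 300 nL library stock went into each well; scaled to the means of positive and negative controls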
Sa growth 42C second temp: further read-out of Sa growth 42C, marked with its call; relative growth, %; measured here: growth at 30 °C;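 optical density after 20 h as mean of two plates; 100% = untreated growth and lower means inhibition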
* marks the source's active call; other numbers are inactive results; / = not tested or not shown; & = joins results of further samples.

SMILES	GIV Gai3 FP	HCMV UL50-53 inh	Sa growth 42C	Sa growth 42C second temp
Cc1ccc(-c2cc(C(=O)N3CCCN(C)CC3)c3ccccc3n2)cc1	/	-47	105	89
CCOC(=O)/C(N=Nc1c(C)n(C)n(-c2ccccc2)c1=O)=C(/O)c1ccccc1	/	-54	88	82
CCOC(=O)C1CCN(C(=O)c2ccc(OCC)cc2)CC1	101	10	80	82
CCOc1ncccc1C(=O)Nc1cccc(C(=O)Nc2cccc(S(=O)(=O)CCO)c2)c1	100	/	76	70
CC1(C)Cc2c(cnn2-c2ccccc2)C(=O)/C1=N\NC(=O)c1ccncc1	101	-51	81	80
COc1ccc(N2CCN(S(=O)(=O)CCNC(=O)Cc3ccc(Cl)cc3)CC2)cc1	103	/	83	84
NCc1ccc(Cl)cc1	/	-7	81	90
O=C(NCCc1c[nH]c2ccccc12)Nc1ccccc1C(F)(F)F	98	-7	114	86
Cc1ccc(Nc2ncc(C(=O)N3CCN(c4ccccc4)CC3)c3ccccc23)cc1Cl	102	-32	/	/
O=C(CSc1nnc(-c2ccccc2O)o1)Oc1ccc(OCc2ccccc2)cc1	102	-21	114	86
CC(C)CC(NC(=O)C1CCCCC1)C(=O)N1CCN(c2ccccc2F)CC1 (stereo not drawn)	107	/	117	89
O=C(O)CCC1(CCC(=O)O)CCCCC1=O	98	-5	87	94
CCc1ccccc1N1CC(c2nc3ccccc3n2CC(C)C)CC1=O (stereo not drawn)	103	-7	98	84
COc1cccc(CNC(=O)CSC2=Nc3ccccc3N=C(c3ccc(F)cc3)C2)c1	112	/	104	100
CCCC(=O)Nc1nnc(SCc2cc(=O)c3ccc(C)cc3[nH]2)s1	107	/	41	18
COc1ccccc1NC(=O)c1ccc(NC(=O)CSc2nnc(C)n2N)cc1	/	-25	73	88
CCOc1ccc(S(=O)(=O)N2CCN(c3ccccc3)CC2)cc1-c1nc(C(C)C)no1	100	-7	/	/
CC(=O)Nc1ccc(-c2nc3ccccc3o2)cc1	/	0	102	92
COc1ccc2c(c1)CC/C(=C/c1ccc(N3CCOCC3)cc1)C2=O	116	-18	99	95
COc1cc(OC)cc(C(=O)N(C)Cc2ccccc2C)c1	/	-29	96	77
O=C(Nc1cccc(C(F)(F)F)c1)C(NCCN1CCOCC1)c1ccccc1 (stereo not drawn)	/	-21	82	91
COC(=O)Cc1cc(=O)n(-c2nc3ccccc3s2)[nH]1	107	-6	28	39
Cc1c(C(=O)OCc2nc(-c3cccc(Cl)c3)no2)sc2nc3n(c(=O)c12)CCC3	/	-13	97	77
CCc1ccc(C2CC(=O)c3c([nH]c(C(=O)OCCOc4ccccc4)c3C)C2)cc1 (stereo not drawn)	102	-2	128	96
CCCn1c(CNC(=O)c2cc(OC)c(OC)c(OC)c2)nc2ccccc21	101	/	99	89

Single records, as listed above:
O=C(NCCc1c[nH]c2ccccc12)Nc1ccccc1C(F)(F)F as listed: GIV Gai3 FP = 98; HCMV UL50-53 inh = -7; Sa growth 42C = 114; Sa growth 42C second temp = 86
Cc1c(C(=O)OCc2nc(-c3cccc(Cl)c3)no2)sc2nc3n(c(=O)c12)CCC3 as listed: GIV Gai3 FP = /; HCMV UL50-53 inh = -13; Sa growth 42C = 97; Sa growth 42C second temp = 77

Further compounds.
SMILES	GIV Gai3 FP	HCMV UL50-53 inh	Sa growth 42C	Sa growth 42C second temp
COc1ccc(-c2csc3nc(-c4ccc(F)cc4)oc(=O)c23)cc1	105	-70	96	87
O=C(CSc1ncnc2nc(N3CCCC3)sc12)Nc1ccc(Br)cc1	106	-4	/	/
Cc1ccccc1Cn1c2ccccc2c2cnn(CC(=O)NCCN3CCN(C)CC3)c(=O)c21	108	-3	112	99
CCCC(=O)Nc1cc(C)c(NC(=O)C23CC4CC(CC(C4)C2)C3)cn1	103	6	116	87
O=C(O)c1ccc2[nH]c(=O)c(=O)[nH]c2c1	/	-16&-5	95&84	92&88
CCOC(=O)c1cc(-c2ccccc2)n(-c2cccc(C(=O)NC(C)(C)C)c2)c1C	105	/	115	104
O=C1C(/C=N/c2[nH]ncc2-c2ccccc2)=C(O)c2ccccc21	97	-20	90	90
CC(C)CC1(C)OCC(C[N+]2(C)CCCCC2)O1 (stereo not drawn)	101	/	110	88
O=C(CSc1nc2ccccc2o1)Nc1ccc2c(c1)C(=O)c1ccccc1C2=O	95	-31	/	/
c1cc2c(cc1C1CCCCC1)c1c3n2CCN=C3CCC1	103	/	-2.0*	-1.3*
CC(C)Cn1c(=O)c2ccccc2n2c(=O)n(CC(=O)NC3CCCCC3)nc12	98	13	/	/
CCOC(=O)c1c(C)oc2nc(COC(=O)c3cc(-c4ccc(Cl)cc4)nc4ccccc34)nc(N)c12	/	-32	99	96
CCN(CC)CCN(C)C1CCC(c2ccccc2)CC1 (stereo not drawn)	98	-18	119	104
CCc1ccc(CNC(=O)CN(c2ccc(C)cc2)S(=O)(=O)N(C)C)cc1	99&98	-37&16	99	83
CCCCn1c(SCC(=O)OCC)nc2c(sc(=S)n2CCc2ccccc2)c1=O	101	/	109	90
CC(C)CCNC(=O)c1cccc(Cl)c1	/	-16	94	86
Cc1nn(C(=O)c2sc3ccccc3c2Cl)c(C)c1Sc1ccccc1[N+](=O)[O-]	101	-11	/	/
COc1ccc(Cl)cc1NS(=O)(=O)c1cc(-c2cc(C)[nH]n2)ccc1C	112	-4	/	/
CN1CCN(c2nc3c(S(=O)(=O)c4ccc(Br)cc4)nnn3c3ccsc23)CC1	102	/	103	88
CC(C)Cc1oc(C(=O)O)cc1CN	105	-12	86	94
C=CCNC(=O)COc1ccc(Cl)cc1Cl	/	1	79	87
CCCC1=NN(C(=O)Cc2ccc([N+](=O)[O-])cc2)C(O)(C(F)(F)F)C1 (stereo not drawn)	101	-30	/	/
NC(=O)c1ccccc1NC(=O)CSc1nc(N)cc(=O)[nH]1	102	-29	118	87
CCS(=O)(=O)c1cccc(C(=O)Nc2nccs2)c1	105	-26	103	84
Cc1ccc(C)c(CN2CCCN(Cc3ccccc3C)S2(=O)=O)c1	100	/	85	90
Remaining list, next part:
SMILES	GIV Gai3 FP	HCMV UL50-53 inh	Sa growth 42C	Sa growth 42C second temp
CCOCCc1nn2c(=O)cc(COC(=O)c3ccc(NC(=O)C(C)(C)C)cc3)nc2s1	102	/	77	88
COc1cc(C(=O)Nc2ccc3oc(-c4cccc5ccccc45)nc3c2)cc(OC)c1OC	101	-17	/	/
CCOc1ccc(NS(=O)(=O)c2cc(C(=O)Nc3ccc(C)cc3)n[nH]2)cc1	98	-12	/	/
CCCN(CCO)CCCc1ccccc1	107	9	101	87
CC1(C)CC(=O)C=C(N2CCN(Cc3ccccc3)CC2)C1	/	-5	88	94
CN=C1SC(CC(=O)Nc2ccccc2F)C(=O)N1C (stereo not drawn)	109	16	/	/
O=C(Cn1c(=O)oc2ccccc21)Nc1ccc(C(=O)O)cc1	104	-12	107	92
CC1Cc2cc(S(=O)(=O)CCC(=O)NCCC3=CCCCC3)ccc2N1C(=O)C1CC1 (stereo not drawn)	111	-4	/	/
Cc1ccc2occ(-c3cc(-c4ccc(F)cc4)nc4c3COc3ccc(F)cc3-4)c(=O)c2c1	104	0	101	86
Cn1c(CNC(=O)c2ccccc2)n[nH]c1=S	105	-8	89	71
CCc1ccc(NS(=O)(=O)c2ccc3[nH]c4c(c3c2)CCCCCC4)cc1	101	/	112	93
Cc1ccc(CN(C)Cn2nc(-c3c[nH]c4ccccc34)n(CC3CCCO3)c2=S)o1 (stereo not drawn)	/	1	88	95
CCCC(=O)Nc1ccc(Cl)c(Cl)c1	106	-16	65	71
C1CCN(SN2CCCCC2)CC1	/	-13	64	40
Cc1nc(NC2=NCN(CCN3CCOCC3)CN2)nc2ccccc12	105	-24	/	/
O=C(/C=C/c1cccs1)N(C1CC1)C1(C(=O)Nc2ccccc2)CCCC1	/	-40	96	86
CN1c2ccc(Cl)cc2-c2nc(SCC(=O)NC3CCCCC3)ncc2S1(=O)=O	106	-17	/	/
O=C(Nc1ccccc1)N1CCN(Cc2ccc3c(c2)OCO3)CC1	111	5	93	87
O=C1NN=C(c2ccccc2)C1CCO (stereo not drawn)	99	-24	88	76
Cc1cc(C)c2oc(-c3cccc(NC(=O)COc4ccc([N+](=O)[O-])cc4)c3)nc2c1	103	15	109	103
COc1ccc(CCNC(=O)CSc2nc(O)c(C(C)C)c(=O)[nH]2)cc1OC	103	-18	86	84
Cc1cccc(N2CCN(C(=O)c3ccc4c(c3)N(Cc3cccc(Cl)c3)C(=O)c3ccccc3S4=O)CC2)c1C (stereo not drawn)	109	/	138	104
COC(=O)C(NC=O)C(O)(c1ccc(OC)cc1)C(F)(F)F (stereo not drawn)	/	-24	92	83
CCN(CC)S(=O)(=O)c1ccc(C(=O)Nc2c3c(nn2-c2ccc(C)cc2C)CSC3)cc1	105	8	/	/
Cc1ccoc1C(=O)N1CCCCC1C(=O)O (stereo not drawn)	100	-28	92	88
Further entries follow.
SMILES	GIV Gai3 FP	HCMV UL50-53 inh	Sa growth 42C	Sa growth 42C second temp
Cc1ccc(Cl)c2c1N[C@@H](c1ccc(C(=O)O)cc1)[C@H]1CC=C[C@@H]21	103	-31	57	34
CC1(C)C(=O)OC(c2cccs2)C(C)(C)C1=O (stereo not drawn)	/	2	92	93
CCOC(=O)C1(C)C=C(Nc2cccc(C)c2)C(=O)N1c1ccccc1 (stereo not drawn)	103	-27	102	88
COc1ccc(-c2oc(/N=C/N3CCCCC3)c(C#N)c2-c2ccc(OC)cc2)cc1	106	-3	138	76
O=C1/C(=C\c2ccccn2)Cc2ccccc21	99	/	92	75
Cc1occc1-c1nnc(SC(C)C(=O)Nc2ccc3c(c2)OCCO3)o1 (stereo not drawn)	104	-26	/	/
O=C(NCc1ccc(Cl)cc1)c1cc2c(s1)CCC2	/	-4	91	94
CC1CCN(S(=O)(=O)c2ccc3c(c2)N(C)C(=O)CC(=O)N3C)CC1	100	-1	67	0
Cc1cc(C)n(C(C)CC(=O)Nc2cccc(C(F)(F)F)c2)n1 (stereo not drawn)	94	/	82	79
COc1ccc2c(c1)c1c(c(=O)n(Cc3ccccc3)c(=O)n1CC(=O)NCc1ccc(C)cc1)n2C	104	/	102	82
CCOc1ccc(NC(=O)Cn2cc(C(=O)c3ccccc3)c(=O)c3cc4c(cc32)OCCO4)cc1	106	-8	112	89
C=CCn1c(SC(C)C(N)=O)nc2ccc(Cl)cc2c1=O (stereo not drawn)	/	-16	78	86
CCCCN1C(=O)SC(Nc2cccc(C)c2)C1=O (stereo not drawn)	105	-24	82	90
O=C(c1ccccc1)N1CCN(CC#CC2(O)CCCCC2)CC1	/	7	114	92
CCOC(=O)CN1CC23C=CC(O2)C(C(=O)NCc2cccs2)C3C1=O (stereo not drawn)	97	1	90	95
Cc1cc(C)c(Cn2cnc3nc4c(cc3c2=O)CC(C)CC4)c(C)c1 (stereo not drawn)	113	-5	/	/
CC(C)n1c(CN2CCN(C)CC2)nc2ccccc21	102	-9	/	/
Cc1c2cnn(CC(=O)NC(C)c3ccc4c(c3)OCCO4)c(=O)c2c(C)n1Cc1ccc(F)cc1 (stereo not drawn)	108	/	116	84
COC(=O)/C=C/C(=O)Nc1ccccc1	107	-36	74	66
Cc1ccc(N(C)C(=O)Cn2ncc3c([nH]c4ccccc43)c2=O)cc1C	104	/	127	91
Cc1c(C(=O)N2CCCC2)oc2c1-c1nn(CC(=O)NCc3ccccc3F)cc1CC2	105	/	102	82
COc1ccc(NC(=O)c2c(NCc3sccc3C)sc3c2CCCCC3)c(OC)c1	121	/	83	86
O=C1NC(=Nc2ccccc2)S/C1=C\c1ccc(-c2cccc(C(=O)O)c2)o1	101	-9	/	/
CCNC(=O)N1CCCC(c2cccc(C(=O)NCCC3=CCCCC3)c2)C1 (stereo not drawn)	105	-15	/	/
CC1=C(C(=O)OCC2CCCCC2)C(c2cccc(F)c2F)CC(=O)N1 (stereo not drawn)	105	-9	106	93
Next section.
SMILES	GIV Gai3 FP	HCMV UL50-53 inh	Sa growth 42C	Sa growth 42C second temp
Nc1sc2ccccc2[n+]1CC(=O)Nc1ccc(Cl)cc1	/	-23	146	60
O=C(Nc1cccc(Cl)c1Cl)c1cc2nc(-c3ccc(Cl)cc3)cc(C(F)(F)F)n2n1	104	-14	95	90
O=C(NC(Cc1nc2ccccc2[nH]1)c1ccccc1)c1ccccc1 (stereo not drawn)	/	-34	100	79
CN(Cc1ccccc1)C(=O)CCc1nc2cccnc2n1Cc1ccccc1	101	/	88	88
CC(C)C(=O)N(c1nnc(-c2ccncc2)s1)C(C)C	105	5	92	80
O=C1COc2cc(S(=O)(=O)NCc3ccccc3)ccc2N1	101	/	124	100
CCc1ccc(S(=O)(=O)NCc2cccn2Cc2cccc(C)c2)cc1	104	/	94	77

6 records drawn at random from those above:
SMILES	GIV Gai3 FP	HCMV UL50-53 inh	Sa growth 42C	Sa growth 42C second temp
O=C(Nc1cccc(Cl)c1Cl)c1cc2nc(-c3ccc(Cl)cc3)cc(C(F)(F)F)n2n1	104	-14	95	90
O=C1COc2cc(S(=O)(=O)NCc3ccccc3)ccc2N1	101	/	124	100
O=C(NC(Cc1nc2ccccc2[nH]1)c1ccccc1)c1ccccc1 (stereo not drawn)	/	-34	100	79
CN(Cc1ccccc1)C(=O)CCc1nc2cccnc2n1Cc1ccccc1	101	/	88	88
CC(C)C(=O)N(c1nnc(-c2ccncc2)s1)C(C)C	105	5	92	80
CCc1ccc(S(=O)(=O)NCc2cccn2Cc2cccc(C)c2)cc1	104	/	94	77
